TRPML1 blocker: qHTS for Inhibitors of the Human Mucolipin Transient Receptor Potential 1 (TRPML1); Mucolipin-1 (Homo sapiens), Q9GZU1; TRPML1-inducible cells, Ca2+ dye fluorescence, FDSS; hits give low values; inhibition of EC80 agonist-evoked calcium signal; activity change, negative = inhibition, % (no concentration beside the values); 390,000 tested, 0.02% active; in the data active means activity change below about -50%; inconclusive means about -30% to -50%; inactive means above about -30%;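 note: stimulus is agonist 54-4 at its EC80 concentration; % is set by controls: 0 for no effect and ±100 for the full control effect; compound concentration not given in the record; the text of the record puts the active cut at -80%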
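Calcium fluorescence in TRPML1-DL cells induced overnight with Tet: a 110 s read after compound pin addition, then a 110 s antagonist read after challenge with 54-4 at 4 uM final (EC80).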
Menin MLL FP FL: qHTS Assay for Inhibitors Targeting the Menin-MLL Interaction in MLL Related Leukemias: Competition With Fluorescein Labeled MLL-derived Peptide. Fluorescence polarization, fluorescein-MLL peptide displacement from menin. FP activity change, % at 61.4 µM. 290,000 tested, under 10 active; inconclusive = falling polarisation curve, or a change in total fluorescence; inactive = total fluorescence flat and polarisation flat or rising; no compound was filed as active; the % refers to the polarisation; negative = inhibition;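 note: % of control where 0% means no effect; inhibitors lower the polarisation; unlabelled MLL peptide was the positive control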
ClpP mod: qHTS Assay for Activators of ClpP | purified B. subtilis ClpP, FRET peptide cleavage, 20 min | Potency, µM (highest dose often 57.5 µM), for the others: at the top dose activity change, negative = active | 340,000 tested, 1.9% active; active = well fitted falling curve with a large enough effect; inconclusive = small, poorly fitted or top-dose-only effect; inactive = no such curve, though single readings can be large or run the other way; note: potency is the fitted concentration of half-maximal effect; the source files actives as falling curves though it sought activators and does not explain the sign; nearly all actives have a fitted effect of over 65% in size; many hits overshoot -100%
Target sequence (P80244 whole entry, looked up): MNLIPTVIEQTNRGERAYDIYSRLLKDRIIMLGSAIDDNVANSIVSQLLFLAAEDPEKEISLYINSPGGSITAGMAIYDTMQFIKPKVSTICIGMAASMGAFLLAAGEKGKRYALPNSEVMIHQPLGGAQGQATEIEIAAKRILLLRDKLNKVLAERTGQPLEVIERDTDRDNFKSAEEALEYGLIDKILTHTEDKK
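FRET quenching reversal measured ClpP activation: 10 microg/mL B. subtilis ClpP at pH 8 with the FRET-FV decapeptide, read at 430 nm after 320 nm excitation. The 20-min minus 0-min signal was scaled between DMSO/no-enzyme wells and ADEP (5.8 microM final).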
TRPML1 ag: qHTS for Agonists of the Human Mucolipin Transient Receptor Potential 1 (TRPML1). Mucolipin-1 (Homo sapiens), Q9GZU1. TRPML1-expressing cells, Ca2+ dye fluorescence, FDSS; host cell line not named in the record; reference of the full effect not given here. activation, % (test concentration not listed). 410,000 tested, 0.12% active. AID 624414, 2012; in the data active = activation above about 50%; inconclusive = about 30% to 50%; inactive = below about 30%; note: 0% is about no effect; the text of the record puts the active cut at 80%
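Cells: TRPML1-DL, 1X Tet inducer, ~16 h at 37 degrees C/5% CO2. Dye: ABD Ca8 no-wash + quencher, 45-90 min RT. Read: 10 s baseline, compound add, 110 s agonist phase; 54-4 EC80 (4uM final), 110 s antagonist phase.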
TRPV1 PAM: HTS Assay for Compounds that Act as Potentiators of the Vanilloid Receptor 1. Transient receptor potential cation channel subfamily V member 1 (Homo sapiens), Q8NER1. TRPV1-expressing cells, Fluo-8 calcium influx, capsaicin EC20 potentiation; host cell line not named in the record; control for the full effect not named in the record. potentiation, % at 8.33 µM. 320,000 tested, 0.02% active. AID 540277, 2011; active means potentiation above 80%; inconclusive means 30% to 80%; inactive means below 30%; note: 0% is about no effect
Target sequence (Q8NER1 whole entry, looked up): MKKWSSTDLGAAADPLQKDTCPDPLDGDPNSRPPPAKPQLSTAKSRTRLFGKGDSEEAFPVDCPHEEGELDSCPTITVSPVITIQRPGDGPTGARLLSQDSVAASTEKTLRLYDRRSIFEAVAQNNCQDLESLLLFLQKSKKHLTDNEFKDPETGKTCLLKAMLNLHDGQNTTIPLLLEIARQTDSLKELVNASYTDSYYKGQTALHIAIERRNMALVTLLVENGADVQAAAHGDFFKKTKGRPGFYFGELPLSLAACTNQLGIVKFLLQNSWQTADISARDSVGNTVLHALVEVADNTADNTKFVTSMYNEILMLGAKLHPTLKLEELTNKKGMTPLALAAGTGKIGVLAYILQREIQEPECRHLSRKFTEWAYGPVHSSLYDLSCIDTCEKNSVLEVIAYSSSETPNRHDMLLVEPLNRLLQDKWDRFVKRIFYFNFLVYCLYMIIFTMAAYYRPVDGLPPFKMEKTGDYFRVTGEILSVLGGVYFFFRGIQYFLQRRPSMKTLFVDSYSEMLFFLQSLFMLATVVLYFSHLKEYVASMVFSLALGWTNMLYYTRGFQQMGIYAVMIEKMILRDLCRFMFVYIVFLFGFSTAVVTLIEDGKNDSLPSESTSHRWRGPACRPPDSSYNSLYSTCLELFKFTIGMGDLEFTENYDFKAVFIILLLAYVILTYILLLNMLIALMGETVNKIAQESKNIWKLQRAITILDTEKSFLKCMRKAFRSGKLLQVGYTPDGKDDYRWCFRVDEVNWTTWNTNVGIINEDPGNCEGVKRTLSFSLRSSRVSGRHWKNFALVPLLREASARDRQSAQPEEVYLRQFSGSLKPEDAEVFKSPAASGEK
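TRPV1-expressing cells were cultured overnight at 35.5C and loaded with Fluo-8 calcium dye for 40 to 90 min at room temperature. After a 10 s baseline, compound was added and calcium influx was read kinetically for 3 min (ex 480/em 520 nm).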
PINK1 modulator: A Quantitative High throughput Screen to Identify Chemical Modulators of PINK1 Expression. Potency, µM (doses to about 76.6 µM), for inactives: at the highest dose activation (PINK1 increase), usual class: activators. 410,000 tested, 0.2% active. PINK1 immunofluorescence, high-content cytometry, 24 h. AID 624263, 2012; active = well fitted activation curve with a large enough effect; inconclusive = small, poorly fitted or top-dose-only effect; inactive = flat fitted curve, though single readings scatter; cell line not stated here;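 note: potency is the fitted concentration of half-maximal effect; % of control where 0% means no effect; nearly all actives have a fitted effect of over 65% in size; a mitochondrial uncoupler was the plate control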
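Decision-based qHTS: stable cells, 24 h exposure to five compound concentrations, CCCP as control. Fixed cells stained for PINK1 plus nuclear, mitochondrial and cell markers, cytometer read.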
Sfp PPTase inh: qHTS Assay for Inhibitors of Bacillus subtilis Sfp phosphopantetheinyl transferase (PPTase) | 4'-phosphopantetheinyl transferase ffp (Bacillus subtilis), Q9F4F7 | Biochemical Sfp PPTase activity, qHTS | Potency, µM, without a hit: max response, negative = inhibition, hits mostly inhibitors | 310,000 tested, 3.5% active; active = well fitted inhibition curve with a large enough effect; inconclusive = small, poorly fitted or top-dose-only effect, or another doubt; inactive = no such curve, though single readings can be large or run the other way;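 note: the enzyme is Sfp with the accession as filed and its product quenches rhodamine fluorescence; potency is the fitted concentration of half-maximal effect; 0% = enzyme reaction without inhibitor and -100% = no enzyme wells; top concentration of the series not given in the record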
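Fluorescence-quenching assay with 15 nM Sfp, 5 uM rhodamine-CoA and 12.5 uM BHQ-2-labelled ybbR peptide in pH 7.6 Hepes/MgCl2 buffer. Enzyme was pre-incubated with compound for 15 min at room temperature. Rate was taken from the 30-min fluorescence change (525/598 nm).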
* = called active by the depositor; & = joins results of further samples; [ ] = dose if it differs, or a comment. The order is random, and some 4.4% of all compounds hit somewhere here.

How did OC(COC(c1ccccc1)c1ccccc1)CN1CCN(c2ccccn2)CC1 (centres undefined) do in these assays?
TRPML1 blocker: 61; Menin MLL FP FL: 6.6; TRPML1 ag: -0.1; TRPV1 PAM: 1; PINK1 modulator: 3.0%; Sfp PPTase inh: 21%

What do the screens show for `COc1ccc(S(=O)(=O)NCC2CCC(C(=O)NCc3cccnc3)CC2)cc1` (centres undefined)?
TRPML1 blocker: 7; Menin MLL FP FL: 2.4; TRPML1 ag: -0.3; TRPV1 PAM: -1; PINK1 modulator: 3.8%; Sfp PPTase inh: -16%

Results for Cc1ccc(-c2nc3ccccc3s2)cc1NC(=O)c1ccc2c(c1)OCO2 ?
TRPML1 blocker: 6; Menin MLL FP FL: 1.7; ClpP mod: inconclusive; TRPML1 ag: -0.5; TRPV1 PAM: 2; Sfp PPTase inh: -5%

How did CC1CCCC(C)N1C(=O)CN1C(=O)C(C)(C)Oc2ccc(C(=O)NC3CCCCC3)cc21 (centres undefined) do in these assays?
TRPML1 blocker: -4; Menin MLL FP FL: 3.0; ClpP mod: 0.0%; TRPML1 ag: 1.1; TRPV1 PAM: 2; PINK1 modulator: 1.0%; Sfp PPTase inh: 6%

Results for CC(C)c1ccc(-n2ccnc2SCC(=O)O)cc1 ?
TRPML1 blocker: 9; Menin MLL FP FL: 0.6; ClpP mod: 0.0%; TRPML1 ag: -1.2; TRPV1 PAM: 2; PINK1 modulator: -0.3%; Sfp PPTase inh: 9%

How did CCCN1CCC2(CC1)NC(C(=O)O)Cc1c2[nH]c2ccccc12 (centres undefined) do in these assays?
TRPML1 blocker: 7; Menin MLL FP FL: 2.4; ClpP mod: -5.2%; TRPML1 ag: 0.6; TRPV1 PAM: 12; PINK1 modulator: 2.0%; Sfp PPTase inh: -13%

What do the screens show for `O=C(COc1cccc(C(F)(F)F)c1)N1CCN(c2ccccc2O)CC1`?
TRPML1 blocker: 18; Menin MLL FP FL: 0.6; TRPML1 ag: 0.6; TRPV1 PAM: -5; PINK1 modulator: 1.4%; Sfp PPTase inh: 18%

Results for O=C(CN1CCCCC1)Nc1nc(-c2ccc(Cl)cc2)cs1 ?
TRPML1 blocker: -7; Menin MLL FP FL: 1.8; ClpP mod: -4.7%; TRPML1 ag: 0.8; TRPV1 PAM: -11; PINK1 modulator: 5.2%; Sfp PPTase inh: 18%

Results for CCOC(=O)[C@H]1[C@H]2COc3ccc(Cl)cc3[C@@H]2N2C(=O)CN(Cc3ccc(C)cc3)C(=O)[C@@]12C ?
TRPML1 blocker: 5; ClpP mod: -2.9%; TRPML1 ag: -0.3; TRPV1 PAM: -20; PINK1 modulator: 3.5%

Results for N=c1oc2cc(O)ccc2cc1C(=O)Nc1ccc(Cl)cc1 ?
TRPML1 blocker: -7; Menin MLL FP FL: inconclusive; ClpP mod: 3.5%; TRPML1 ag: 1.4; TRPV1 PAM: -17; PINK1 modulator: inconclusive; Sfp PPTase inh: -17%

Results for CCOC(=O)C1CCN(C(=O)c2ccc3c(c2)OCO3)CC1 ?
TRPML1 blocker: -12; Menin MLL FP FL: -0.2; ClpP mod: -0.5%; TRPML1 ag: 0.2; TRPV1 PAM: -7; PINK1 modulator: -3.6%[38.3 µM]; Sfp PPTase inh: 13%

Results for Cc1nc(-c2ccc(Cl)cc2)sc1CCNC(=O)C(=O)Nc1ccc(F)cc1F ?
TRPML1 blocker: -4; ClpP mod: -4.7%; TRPML1 ag: 0.6; PINK1 modulator: 1.7%

Results for Cc1cccc(NC(=O)CSc2nnc(C3CC3)n2CC2CCCO2)c1 (centres undefined) ?
TRPML1 blocker: -9; Menin MLL FP FL: 0.3; ClpP mod: 1.0%; TRPML1 ag: 0.8; TRPV1 PAM: 5; PINK1 modulator: 1.1%; Sfp PPTase inh: 14%

How did COc1ccc2oc(=O)c(C(=O)Oc3ccc(NC(C)=O)cc3)cc2c1 do in these assays?
TRPML1 blocker: 5; Menin MLL FP FL: -0.1; ClpP mod: 82%; TRPML1 ag: -0.5; TRPV1 PAM: 20; Sfp PPTase inh: -1%

How did C[C@@H]1CCCCCCCCCCC1=O do in these assays?
TRPML1 blocker: -5; Menin MLL FP FL: 2.4; TRPML1 ag: -0.6; TRPV1 PAM: 13; PINK1 modulator: 0.7%; Sfp PPTase inh: 22%

Results for CCCCc1nn2c(=O)cc(COC(=O)c3ccccc3NC(=O)c3cccc(C)c3)nc2s1 ?
TRPML1 blocker: -2; ClpP mod: -1.3%; TRPML1 ag: 0.3; PINK1 modulator: -0.2%

What do the screens show for `Cc1ccc(-c2nc(N)n(S(C)(=O)=O)n2)cc1`?
TRPML1 blocker: -5; Menin MLL FP FL: 2.3; ClpP mod: 0.8%; TRPML1 ag: -0.4; TRPV1 PAM: -12; PINK1 modulator: -0.9%; Sfp PPTase inh: 0%

What do the screens show for `Cn1c(=O)c2c(SCC(=O)NCc3ccco3)nc(-c3ccccc3)nc2n(C)c1=O`?
TRPML1 blocker: -7; ClpP mod: 0.5%; TRPML1 ag: -0.5; PINK1 modulator: 0.0%

Results for Cc1ccc(OC/C(O)=C(\C#N)c2nc3ccccc3s2)cc1 ?
TRPML1 blocker: 18; Menin MLL FP FL: -5.9; ClpP mod: 2.0%; TRPML1 ag: -0.8; TRPV1 PAM: -6; PINK1 modulator: inconclusive; Sfp PPTase inh: 5%

Results for Cc1cc(C)c(C(=O)Nc2ccc(C)c(C)c2)c(CC(C)(C)C(=O)O)c1 ?
TRPML1 blocker: -16; Menin MLL FP FL: 4.3; TRPML1 ag: 1.3; TRPV1 PAM: 1; PINK1 modulator: -1.7%; Sfp PPTase inh: 10%

Results for CN(CC(=O)NCc1ccccc1)S(=O)(=O)c1ccc2c(c1)CCC(=O)N2 ?
TRPML1 blocker: -12; ClpP mod: -4.1%; TRPML1 ag: 0.3; TRPV1 PAM: -5; PINK1 modulator: -0.9%; Sfp PPTase inh: -4%

What do the screens show for `CNC(=O)CSc1nnc(SCCC(=O)O)s1`?
TRPML1 blocker: -2; Menin MLL FP FL: 4.6; ClpP mod: 1.6%; TRPML1 ag: 1.5; TRPV1 PAM: 13; PINK1 modulator: 0.2%; Sfp PPTase inh: 7%

Results for O=C(Nc1ccc(Cl)c([N+](=O)[O-])c1)c1ccc2c(c1)OCCO2 ?
TRPML1 blocker: 35; Menin MLL FP FL: -3.3; ClpP mod: 1.0%; TRPML1 ag: -0.2; TRPV1 PAM: -1; PINK1 modulator: -0.5%; Sfp PPTase inh: 12%

Results for Cc1cccn2c(=O)c(C=C(C#N)C#N)c(N3CCN(C)CC3)nc12 ?
TRPML1 blocker: 0; Menin MLL FP FL: -10; TRPML1 ag: 0.9; TRPV1 PAM: inconclusive; PINK1 modulator: 0.1%; Sfp PPTase inh: 13%

Results for COc1ccc(-c2csc(/N=C/N(C)C)n2)cc1OC ?
TRPML1 blocker: -1; Menin MLL FP FL: -5.2; TRPML1 ag: 0.6; TRPV1 PAM: -1; PINK1 modulator: 1.8%; Sfp PPTase inh: 4%

Results for O=C(NCCN1CCCC1)C1CCC(=O)N(CCCN2CCOCC2)C1 (centres undefined) ?
TRPML1 blocker: -1; ClpP mod: -2.2%; TRPML1 ag: 0.4; TRPV1 PAM: 6; PINK1 modulator: 0.8%; Sfp PPTase inh: -3%

Results for C=CCN1C(c2ccc(Br)cc2)=CS/C1=C(\C#N)c1nnc(N2CCOCC2)n1-c1ccccc1 ?
TRPML1 blocker: 11; TRPML1 ag: 2.1; PINK1 modulator: -2.2%

What do the screens show for `O=S(=O)(N/N=C/c1cn(Cc2ccccc2)c2ccccc12)c1ccccc1`?
TRPML1 blocker: -13; Menin MLL FP FL: 1.9; ClpP mod: 1.9%; TRPML1 ag: 2.7; TRPV1 PAM: 6; PINK1 modulator: -1.3%; Sfp PPTase inh: 17%

What do the screens show for `CCCc1c(O)nc(SC2CC(=O)N(c3ccc(OC)cc3)C2=O)[nH]c1=O` (centres undefined)?
TRPML1 blocker: -13; Menin MLL FP FL: 4.8; TRPML1 ag: 0.1; TRPV1 PAM: -4; PINK1 modulator: -0.8%; Sfp PPTase inh: 0%

What do the screens show for `Cc1ccc(-c2cc3c(n2-c2ccc(C(=O)O)cc2)CCCC3=O)cc1`?
TRPML1 blocker: 12; Menin MLL FP FL: -0.3; ClpP mod: 1.0%; TRPML1 ag: 0.2; TRPV1 PAM: 0; PINK1 modulator: 0.6%; Sfp PPTase inh: 7%

How did CCCN1C2CCCC1CC(NC(=S)Nc1cc(C)cc(C)c1)C2 (centres undefined) do in these assays?
TRPML1 blocker: -5; Menin MLL FP FL: 0.1; ClpP mod: -2.2%; TRPML1 ag: 0.2; TRPV1 PAM: 1; PINK1 modulator: 2.5%; Sfp PPTase inh: 16%

What do the screens show for `COc1ccc(CCN(C)CCC(=O)Nc2cc(C)ccc2C)cc1OC`?
TRPML1 blocker: -1; Menin MLL FP FL: 11; ClpP mod: -3.1%; TRPML1 ag: 0.1; TRPV1 PAM: -11; PINK1 modulator: 0.4%; Sfp PPTase inh: -19%

What do the screens show for `CC(C)Oc1cccc(C(=O)C2CCCN(C(=O)c3csnn3)C2)c1` (centres undefined)?
TRPML1 blocker: -7; Menin MLL FP FL: 0.4; TRPML1 ag: -0.6; TRPV1 PAM: -2; PINK1 modulator: 0.7%; Sfp PPTase inh: -7%

How did CC(C)CCNC(=O)c1cn(C)c2ccc(S(=O)(=O)N3CCCC3)cc2c1=O do in these assays?
TRPML1 blocker: -7&5; ClpP mod: 0.1%&1.1%; TRPML1 ag: 0.3&-0.3; TRPV1 PAM: -20; PINK1 modulator: 2.5%&6.6%; Sfp PPTase inh: 13%

Screens: PubChem, National Center for Advancing Translational Sciences (NCATS)
